Screens: PubChem BioAssay, ICCB-Longwood Screening Facility, Harvard Medical School
AID504770: E. coli YBA685 growth inhibition, screen for V. cholerae RctB inhibitors. E. coli YBA685 rctB-dependent plasmid, OD600 growth, 3 h; hits give low values. z-score (concentration not given with the values). 130,000 compounds, 0.27% hits;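 active means z-score under -2 on both plates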;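 further: wells of about 30 µL received 100 nL stock; score is relative to mean and SD of the test wells; the first replicate is given; strong numbers were not always called active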
Ba CapD inh: inhibitors of Bacillus anthracis CapD enzyme; purified CapD enzyme, fluorescence intensity read-out; hits give low values; some hits fall short of the stated cut; z-score (concentration not given with the values); 140,000 compounds, 0.23% hits; AID 492967;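 active means z-score under -4 in either of two replicates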;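 further: stock transfer was 100 nL into about 40 µL; score is relative to mean and spread of the plate; one replicate is shown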
The depositor's hits bear a star; · = not tested or not shown; & = joins results of further samples. Only part of the results is shown; rates above refer to the full screens.

SMILES	AID504770	Ba CapD inh
Cc1cccc(N2CCN(C(=O)C(C)(C)Cc3cc(C)cc(C)c3C(=O)O)CC2C)c1 (configuration not stated)	·	0.23
COC(=O)c1ccc2c(=O)n(Cc3ccc(C(=O)Nc4cc(OC)c(OC)c(OC)c4)cc3)c(=S)[nH]c2c1	·	-0.62
CCOC(=O)c1c(NC(=O)C23CC4CC(CC(C4)C2)C3)sc(C(=O)Nc2cccc(Cl)c2C)c1C	·	-0.15
COc1ccc(CSC2=NCN(C3CC(C)CC(C)(C)C3)CN2)cc1 (configuration not stated)	-0.9	-0.06
CCOC(=O)C1=C(C)NC(=O)NC1C1CC=CCC1 (configuration not stated)	1.8	·
COC(=O)c1ccc(CC(C#N)(Cc2ccc(C(=O)OC)o2)C(=O)Nc2ccc(OC)c(OC)c2)o1	-0.45	·
C1CNCCN1	0.45	0.97
CC(=O)Nc1ccc(S(=O)(=O)Nc2ccc(S(=O)(=O)N(C3CC3)C3CCN(C(C)=O)CC3)cc2)cc1	·	-0.19
COc1cc(N=CC2=C(O)c3ccccc3C2=O)cc(OC)c1	-0.9	-0.84
C=CCc1cccc(C=NC(Cc2cnc[nH]2)C(=O)O)c1O (configuration not stated)	-0.3	2.1
O=c1/c(=C\c2ccc(OCc3ccc(Cl)cc3Cl)cc2)sc2nc3ccccc3n12	·	0.51
COc1cc(C=NCCN=Cc2ccc(O)c(OC)c2)ccc1O	-0.6	-1.3
Cc1[nH]c2ccccc2c(=O)c1Br	0.35	-0.31
C=CCn1c(SCC(=O)Nc2ccc(OCC)cc2)nc2cc(C(=O)N3CCC(C(N)=O)CC3)ccc2c1=O	·	-0.11
COc1ccc(N2S(=O)(=O)c3ccccc3S2(=O)=O)cc1OC	·	-0.58
O=S(=O)(c1ccsc1)c1ccsc1	-0.5	-0.085
O=S(=O)(c1cccc(C(F)(F)F)c1)N1CCCN(CCc2ccccc2)CC1	0.8	-0.42
Cc1c(C(=O)c2ccc(Cl)c(Cl)c2)oc2c(Cl)cc(Cl)cc12	·	-0.005
O=S(=O)(NCc1ccco1)c1cccc(S(=O)(=O)N2CCCCC2)c1	-0.5	·
O=C(CSc1nccc(-c2ccco2)n1)Nc1ccccc1Cl	-0.95	0.085
COc1ccccc1NC(=O)CSCC(N)=O	1.1	-1.2
COc1ccc(Cl)cc1S(=O)(=O)N(C)CC(N)=O	0.25	0.11
COC(=O)c1c(C)oc2ccc(N(C(=O)c3ccc(C)cc3)S(=O)(=O)c3cccc([N+](=O)[O-])c3)cc12	·	-0.34
CCc1ccc(Nc2ncnc3c2cnn3C)cc1	-0.9	0.47
CC1(C)c2ccccc2N2CC(=O)NC21/C=C/c1cccc(Br)c1 (configuration not stated)	·	-0.77
O=C(NCCC1=CCCCC1)c1cc(S(=O)(=O)N2CCOCC2)ccc1Sc1ccc(F)cc1	·	-0.17
O=C(CC1(O)C(=O)Nc2ccccc21)CC1(O)C(=O)Nc2ccccc21 (configuration not stated)	0.7	0.61
CCOc1ccccc1C1C(C#N)=C(SCC(=O)Nc2cccc(C)c2)NC2=C1C(=O)CCC2 (configuration not stated)	·	9.5
O=C(NCCSCc1ccccc1)c1ccc[nH]c1=S	·	-0.67
Cc1ccccc1-c1noc(-c2ccccc2C)n1	2.8	-0.08

Full records as entered above. Values in the order: AID504770, Ba CapD inh
CCc1ccc(Nc2ncnc3c2cnn3C)cc1 as listed: -0.9, 0.47
O=C(CC1(O)C(=O)Nc2ccccc21)CC1(O)C(=O)Nc2ccccc21 (configuration not stated) as listed: 0.7, 0.61
Cc1ccccc1-c1noc(-c2ccccc2C)n1 as listed: 2.8, -0.08
COc1ccccc1NC(=O)CSCC(N)=O as listed: 1.1, -1.2
O=C(CSc1nccc(-c2ccco2)n1)Nc1ccccc1Cl as listed: -0.95, 0.085

Next results follow.
SMILES	AID504770	Ba CapD inh
O=C(Nc1ccccc1)Nc1cccc(Cl)c1	-0.45	-0.13
COc1ccc(N2CCN(c3ncnc4sc(C(=O)N5CCC6(CC5)OCCO6)c(C)c34)CC2)cc1	·	-0.045
O=S(=O)(Nc1cccc(-c2ncon2)c1)c1ccc(F)cc1F	-0.25	-0.5
CCSc1nc2c(c(=O)n1Cc1ccccc1)SC(C)C2 (configuration not stated)	-0.4	-0.64
CC(NC(=O)CC1=NS(=O)(=O)c2ccccc2N1)c1ccccc1 (configuration not stated)	0.8	0.71
CCC(Sc1nnc2c3ccccc3n(CC)c2n1)C(=O)NC(C)c1ccccc1 (configuration not stated)	0.2	-0.18
CC1(C)Cc2c(c(N3CCOCC3)nc3sc4c(ncn5c(SCC(=O)NCc6ccco6)nnc45)c23)CO1	0.75	22
O=C1c2ccccc2C(=O)N1CC1c2ccccc2CCN1S(=O)(=O)Cc1ccccc1 (configuration not stated)	·	-0.82
O=C(NNC(=O)c1cccc(O)c1)OCCc1c(F)cccc1Cl	·	0.9
CCc1nnc(SCC(=O)N(CC)c2ccccc2)c2cc3occc3n12	-0.4	3.9
COc1ccccc1CC(=O)Nc1nncs1	1.8	0.53
O=c1oc(-c2cccnc2)nc2sc3c(c12)CCCCC3	0.55	1.9
O=C(O)CCC(=O)N1N=C(c2ccc([N+](=O)[O-])cc2)CC1c1ccc(Br)cc1 (configuration not stated)	·	0.9
O=C(O)CCC(=O)Nc1nccs1	-0.8&2.6	-0.86
CCOc1cc(C2C(C#N)=C(N)OC3=C2C(=O)CC(C)(C)C3)cc([N+](=O)[O-])c1OC(=O)c1cccs1 (configuration not stated)	·	-0.91
FC(F)Oc1ccc(C2CC(c3cccs3)=Nc3ccccc3S2)cc1 (configuration not stated)	·	-0.99
CN(C)c1ccsc1C(=O)NN	-1.5	-1.7
C=CCN(CC=C)S(=O)(=O)c1ccc(C(=O)Nc2nc3c(ccc4ccccc43)s2)cc1	·	-0.38
N#CCC(=O)Nc1ccc(C(=O)O)cc1	-0.45	-0.53
COc1cccc(Nc2nc(C3(C)CC4(CC(C)OC4=O)C(=O)O3)cs2)c1 (configuration not stated)	0	0.43
O=C(CC1CCCCC1)Nc1cccnc1	-0.75	·
CC(C(=O)Nc1ccc2c(c1)OCO2)N(C)CC1COc2ccccc2O1 (configuration not stated)	1.8	·
Clc1ccc(Nc2nc(NC3CCCC3)nc(N3CCOCC3)n2)cc1	·	0
CCc1n[nH]c(=O)c2cc3cc(OC)ccc3n12	-0.25	18
COC(=O)c1cc(OC)c(OC)cc1NCC(=O)Nc1ccc(C)cc1	0.7	·
O=C(COC(=O)c1ccco1)NC(c1ccccc1)c1ccccc1	0.5	·
CC(=O)O[C@]1(C(=O)CO)CCC2C3CCC4=CC(=O)CCC4(C)C3C(O)CC21C (some centres not stated)	-0.6	0.04
c1cnc2c(OCc3nc4ccccc4[nH]3)cccc2c1	-1.1	0.83
Cc1ccc(S(=O)(=O)Oc2ccc(Oc3ccccc3)cc2)cc1	·	-0.18
COc1ccccc1NC(=S)NC(c1ccccc1)c1ccccc1	-0.1	0.69

Fetched by structure from above:
SMILES	AID504770	Ba CapD inh
C=CCN(CC=C)S(=O)(=O)c1ccc(C(=O)Nc2nc3c(ccc4ccccc43)s2)cc1	·	-0.38
CC(=O)O[C@]1(C(=O)CO)CCC2C3CCC4=CC(=O)CCC4(C)C3C(O)CC21C (some centres not stated)	-0.6	0.04
O=C(CC1CCCCC1)Nc1cccnc1	-0.75	·

Following part.
SMILES	AID504770	Ba CapD inh
Cc1ccccc1NC(=O)C1c2ccccc2C(=O)N2CCc3ccccc3C12 (configuration not stated)	0.25	0.28
COc1ccc2c(c1)OC1(C=C2)N(C)c2ccccc2C1(C)C (configuration not stated)	·	-0.45
COc1ccc(CC(=O)N2CCc3ccccc3C2)cc1	-0.35	-0.33
COc1ccc(S(=O)(=O)N2CCN(CCN3C(=O)c4cccc5cccc(c45)C3=O)CC2)cc1	·	-0.05
O=C(Cc1nnc(-c2ccc(Br)cc2)o1)NCCc1ccccc1	-1.2	0.88
COc1cccc2c1OC1(CCCCC1)N1N=C(c3ccco3)CC21 (configuration not stated)	-0.8	-0.83
NNC(=O)CC1=NNC(=O)C1	0.35	·
CCOC(=O)C1=C(C)NC2=C(C(=O)CC(c3ccc(Cl)cc3)C2)C1c1cc(OC)c(OC)c(OC)c1 (configuration not stated)	·	22
Cc1cc(C)n2cc(CSC(C)C(=O)O)nc2n1 (configuration not stated)	0.15	·
c1ccc(-c2ccc(C3NN=C4C5CCN(CC5)C43)cc2)cc1 (configuration not stated)	-0.15	45
CC(C)NC(=O)c1cc2c(s1)-c1ccccc1OC2	0.9	83
O=[N+]([O-])c1ccccc1Nc1nc(OCC(F)(F)F)nc(OCC(F)(F)F)n1	·	-0.49
CCOC(=O)c1ccccc1-c1csc(NC(=O)c2ccc(F)cc2)n1	·	-0.23
CC(CCc1ccccc1)NC(=O)C(C)N1CCNC(=O)C1 (configuration not stated)	-1.8	·
N#Cc1nc(-c2ccccc2F)oc1NC1CCCCC1	0.15	62

The list goes on, starting with the last 5 of the part before.
SMILES	AID504770	Ba CapD inh
CC(C)NC(=O)c1cc2c(s1)-c1ccccc1OC2	0.9	83
O=[N+]([O-])c1ccccc1Nc1nc(OCC(F)(F)F)nc(OCC(F)(F)F)n1	·	-0.49
CCOC(=O)c1ccccc1-c1csc(NC(=O)c2ccc(F)cc2)n1	·	-0.23
CC(CCc1ccccc1)NC(=O)C(C)N1CCNC(=O)C1 (configuration not stated)	-1.8	·
N#Cc1nc(-c2ccccc2F)oc1NC1CCCCC1	0.15	62
O=C1OC(c2ccc(Br)cc2)=N/C1=C\N1CCCCC1	0.1	-0.3
Cc1ccc(S(=O)(=O)N2CCC(O)CC2C)cc1 (configuration not stated)	0	·
NC(=O)c1cccc(N=Cc2ccc3ccccc3c2)c1	-0.75	16
O=C(OCCOc1cccc(Cl)c1)C1CCN(S(=O)(=O)c2cccs2)CC1	0.05	·
Cc1cc(C)c(C(N)=O)c(=O)[nH]1	-0.25	·
CC(C)NCC(O)COc1ccc(S(=O)(=O)N2CCOCC2)cc1 (configuration not stated)	0.15	·
Cc1cc(=O)c2cc(N)ccc2[nH]1	-0.6	67
CN(C)S(=O)(=O)c1cccc(COC(=O)/C(=C/c2cccs2)c2cccs2)c1	-0.05	·
O=C(O)C(Cc1cccs1)c1ccccc1 (configuration not stated)	0.65	-0.61
CCCCN1C(=O)c2ccccc2C1C(=O)NC1CCCC1 (configuration not stated)	-0.45	0.21
CC(=O)N/C(=C\c1ccc(OC(F)(F)F)cc1)C(=O)O	-0.25	0.49
CCOC(=S)SCc1cn2ccccc2n1	-0.75	0.38
Cc1onc(-c2ccccc2)c1C(=O)Nc1sc2c(c1C#N)CCCC2	·	0.14
O=c1ccc(-c2ccncc2)n[nH]1	0.25	1.3
O=C(NCc1ccc2c(c1)OCO2)C1CC(=O)N(C2CCCCC2)C1 (configuration not stated)	-1	-1.7
Fc1ccc(C2Nc3c(ccc(Cl)c3Cl)C3C=CCC32)cc1 (configuration not stated)	·	-0.09
N#CCn1ccccc1=O	0.2	·
O=[N+]([O-])c1ccc(C(/C=C/c2ccc(Cl)cc2)=N/Nc2ccccc2)cc1	·	2.8
COc1ccc(C(c2c(C)n(C)n(-c3ccccc3)c2=O)c2c(C)n(C)n(-c3ccccc3)c2=O)c(OC)c1OC	·	0
CCOC(=O)c1c(NC(=O)CN2C(=O)/C(=C/c3ccc(OC)c(OC)c3)SC2=S)sc2c1CCCC2	·	-0.3
O=C(NCc1cccc(CNC(=O)NCc2ccco2)c1)NCc1ccco1	0.35	·
COc1cc(NC(=O)CCc2ccccc2)nc(OC)n1	-0.4	·
O=C(O)c1cc(S(=O)(=O)NCCN2CCOCC2)ccc1O	1.9	·
CCC(=O)Nc1ccc(C(=O)Nc2c[nH]c(=O)[nH]c2=O)cc1	0.5	·
COC(=O)Cc1nc(N2CCN(Cc3ccccc3)CC2)c2c(C)c(C)sc2n1	·	0.13
O=C(O)C(Cc1ccc(O)cc1)N=Cc1cccc2ccccc12 (configuration not stated)	-0.25	-2.7
NC(=O)c1ccsc1NC(=O)c1ccc2ncsc2c1	0.35	0.25
CC(=O)Nc1ccc(N2Cc3ccccc3C2)cc1	1.1	·
Cc1ccc(C2CC(=O)NC(SCc3ccccc3)=C2C#N)o1 (configuration not stated)	0	0
N#CC(C(=O)c1cccc(C(F)(F)F)c1)=C1SCCCCS1	-0.45	-0.015
CCCCN(CCCC)CCC(=O)NN1S(=O)(=O)c2ccccc2S1(=O)=O	·	-2.5
Cc1ccccc1-c1nc(CS(=O)(=O)CC(=O)N(C)Cc2ccccc2)c(C)o1	-0.75	-0.49
Cc1ccc(NC(=O)COC(=O)CCc2ccco2)cc1C	0.05	·
COc1ccc(S(=O)(=O)NCc2ccc(C(=O)NC3CCCCC3C)cc2)cc1 (configuration not stated)	1.9	-0.12
COC(=O)c1ccc(-c2ccco2)n1CC(=O)NCc1ccc(Cl)cc1	1.1	-0.02
O=c1[nH]c2ccccc2c(=O)n1CCSc1ccccc1	0	2.1
Cc1ccc(S(=O)(=O)N2CCCC2C(=O)Nc2ccc(C)cc2C)cc1 (configuration not stated)	2.5	-2
Cc1ccc(-c2csc(NC(=O)Nc3ccccc3)n2)cc1	-0.2	0.075
O=C(N/N=C/c1ccc(N2CCCCC2)o1)c1ccco1	-0.4	-0.99
COc1cccc(OC)c1C(=O)N1CCc2cccc(S(=O)(=O)N(C)C)c21	·	-0.15
Cc1cc(OCc2c(C)c(C)c(C)c(C)c2C)c2cc(Cl)ccc2n1	-0.5	-0.29
COC(=O)c1ccc(C2OCC(C)(C)CO2)cc1	-0.7	-0.14
CS/C(=C\C(=O)c1cccs1)NCc1ccccc1	-0.75	-0.29
Cc1cc(Br)c(OCC(=O)NN)c2c1CCC2	·	0.09
Cc1ccc(C(c2sc3ncnn3c2O)N2CCN(CCO)CC2)cc1 (configuration not stated)	0.15	·
